Compound activity: PubChem, National Center for Advancing Translational Sciences (NCATS)
LT uptake inh = qHTS Assay for Anthrax Lethal Toxin Internalization; Potency, µM (highest dose often 40 µM), for the others: at the top dose activity change, negative = inhibition, most hits filed as inhibitors; 0.67% of 70,000 active; Cells, anthrax lethal toxin internalization, FRET ratio (460/530); AID 912, 2007; active = well fitted falling ratio curve with the 530 nm signal flat; inconclusive = other ratio curves, or a change in one channel alone; inactive = flat curves in the ratio and both channels; the % refers to the ratio; note: % is set by controls: 0 for no effect and ±100 for the full control effect; nearly all actives have a fitted effect of over 50% in size; tested in ME-180 cells; beta-lactamase reporter
Prx2 Sm inh = Schistosoma Mansoni Peroxiredoxins (Prx2); Potency, µM; 0.07% of 65,000 active; S. mansoni Prx2 activity coupled to TGR/GSH (TGR is thioredoxin glutathione reductase), NADPH fluorescence loss, qHTS; some inactives read as strong as hits; active means full or partial inhibition curve with a strong effect at the top dose; inconclusive means weaker partial or single-point curve; inactive means no accepted curve; note: series up to 57 µM; many of its hits are not listed in these tables
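qHTS, coupled TGR/Prx2 format; 15 min compound preincubation at RT; reaction started with H2O2 (2.5 mM aliquot); kinetic NADPH fluorescence decrease, ex 365/em 450 nm.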
The depositor's hits bear a star; ? = inconclusive; . = not tested or not shown; & = joins results of further samples; [ ] = remark or other dose. Potency is the fitted concentration of half-maximal effect. Some of the compounds tested; count on the stated rates, not on these rows.

Each structure is followed by: Prx2 Sm inh | LT uptake inh
- NCCC[C@@H](CC(=O)N[C@@H]1CCCC[C@H]1C(=O)N[C@H](CC(=O)N[C@@H](CCC(=O)O)CC(=O)O)Cc1c[nH]c2ccccc12)NC(=O)C[C@H](Cc1c[nH]c2ccccc12)NC(=O)[C@@H]1CCCC[C@H]1N
  >57 | ?
- CCOC(=O)n1c(=O)oc2cc(S(=O)(=O)N3CCOCC3)ccc21
  >57 | 0%
- CS(=O)(=O)N(CC(=O)N1CCc2ccccc2C1)c1ccc2c(c1)OCO2
  >57 | 4%
- CCOC(=O)c1c(C)n(C)c2ccc(O)c(CN3CCC(C)CC3)c12
  >57 | ?
- COc1ccc2c(C)cc(SCC#N)nc2c1
  . | ?
- CCOc1ccc(-n2c(=O)[nH]cc(C(=O)N3CCc4ccccc43)c2=O)cc1
  >57 | 9%
- COc1ccc(CN(Cc2cc3cc4c(cc3[nH]c2=O)OCO4)C(=O)NC2CCCCC2)cc1
  >57 | -3%
- CCOC(=O)N1CCC(NC(=O)Cn2cc3c(n2)CCCC3)CC1
  >57 | 4%
- CC(C)NC(=O)N1CC[C@@]2(CCCN(S(=O)(=O)c3ccccc3)C2)C1
  >57 | 5%
- O=c1cc(CN2CCOCC2)c2c(ccc3ccccc32)o1
  >57 | -6%
- CC1Cc2ccccc2N1C(=O)C1CCN(S(=O)(=O)c2cccs2)CC1 (configuration not stated)
  >57 | 8%
- CCn1nc(C)c(NC(=O)CCCSc2nc(-c3ccco3)cc(C(F)(F)F)n2)c1C
  >57 | ?
- O=C1C(Cl)=C(NCC2CCCO2)C(=O)N1C1CCCCC1 (configuration not stated)
  >57 | -20%
- Cc1cnc(CNc2cc(-c3ccc(C(=O)N(C)C)cc3)ncn2)cn1
  >57 | ?
- Cn1nnnc1Sc1nc(-c2cccnc2)nc2ccccc12
  >57 | ?
- COCCN(C(=O)c1csnn1)C(C(=O)NC1CCCCC1)c1sccc1C (configuration not stated)
  >57 | ?
- CCOC(=O)C1CCCN(C(=O)CCNS(=O)(=O)c2ccc3c(c2)CCC(=O)N3)C1 (configuration not stated)
  >57 | 3%
- COc1ccc(C(c2nnnn2Cc2ccccc2)N2CCN(C(=O)c3ccco3)CC2)cc1OC (configuration not stated)
  >57 | 9%
- O=S(=O)(Cc1ccccc1)N1CCN(Cc2ccc3c(c2)OCO3)CC1
  >57 | -13%
- COc1ccc(-c2nc3cnc(N4CCNCC4)nc3n(C)c2=O)cc1
  >57 | ?
- Cn1c(NCc2cc(Br)ccc2O)nc2ccccc21
  . | -11%
- Cc1ccsc1C(=O)OCC(=O)NCc1ccc2c(c1)OCO2
  >57 | 11%
- Cc1c(C(=O)NCC2CCCO2)oc2ccc(S(=O)(=O)N3CCCC3)cc12 (configuration not stated)
  >57 | -2%
- CCNc1ncc2nc(-c3ccccc3)c(=O)n(CCc3ccccc3)c2n1
  >57 | ?
- Cc1csc(NC(=O)Cc2nn(C)c(=O)c3ccccc23)n1
  >57 | -8%
- COc1cccc(Nc2ncc3ncc(=O)n(CCc4ccccc4)c3n2)c1
  >57 | ?
- CCOC(=O)COn1c(=O)c[n+]([O-])c2ccccc21
  >57 | -9%
- Cc1cc2c(SCc3ccccc3Cl)nc(N)nc2nc1C
  >57 | 8%[8 µM]
- Cc1ccc2c(COC(=O)c3n[nH]c4ccccc34)cc(=O)oc2c1
  >57 | -7%
- CC(C)Cn1c(-c2cccs2)nc2nc3ccccc3nc21
  . | ?
- O=C(CSc1ncc(-c2ccc(F)cc2)[nH]1)N1CCCCC1
  >57 | -7%
- O=C(Cn1ncc2ccsc2c1=O)N1CCC2(CC1)OCCO2
  >57 | 17%
- CCN(CC)CCCN(Cc1cc2cc(OC)ccc2[nH]c1=O)C(=O)Nc1ccccc1
  >57 | -9%
- C=C(C)C1Cc2nc(N)nc(C)c2C1 (configuration not stated)
  >57 | 3%
- Cc1occc1-c1nnc(SCc2nc3ccccc3c(=O)n2CC#N)n1C
  >57 | -7%
- Nn1c(SCC(=O)Nc2ccc(F)cc2)nnc1-c1ccccn1
  >57 | -19%
- COc1ccc(OC)c(C(=O)COC(=O)c2cc(C)oc2C)c1
  >57 | ?
- Cc1cc(C)n(-c2ncnc3c2oc2ccccc23)n1
  >57 | -6%
- COCCNC(=O)c1cc(Br)ccc1Cl
  >57 | 3%
- CCc1cc2c(=O)n(Cc3ccco3)c(SCc3c(C)noc3C)nc2s1
  >57 | 10µM*
- NC(=O)C1(N2CCCCC2)CCN(CC(=O)Nc2ccccc2-c2ccccc2)CC1
  >57 | -3%
- COc1ccc(OCC(=O)Nc2cccc(OC)c2)cc1
  >57 | ?
- C=CCSc1nc2c(N)ncnc2n1[C@@H]1O[C@H](CO)[C@@H](O)[C@@H]1O
  >57 | -14%[8 µM]
- N#C/C(N)=C(/N)C#N
  . | -4%
- c1cc(CN2CCC3(CCNCC3)CC2)ccn1
  >57 | 7%
- COc1cc(C2NC(=O)NC(C)=C2C(=O)OC2CCCC(C)C2)ccc1O (configuration not stated)
  >57 | -11%
- COC(=O)[C@@]1(Cc2ccc(OC)cc2)[C@H]2c3cc(C(=O)N(C)C)n(CCSCCO)c3C[C@H]2CN1C(=O)c1ccccc1
  >57 | 4%
- COc1ccc2c(c1)c1ncnc(N3CCN(Cc4ccc5c(c4)OCO5)CC3)c1n2C
  >57 | ?
- Cn1cc(/C(Cc2ccccc2)=N\O)c2ccccc21
  >57 | -3%
- CN(CCCNC(=O)C1CCCN(S(=O)(=O)c2cnc[nH]2)C1)c1ccccc1 (configuration not stated)
  . | -4%
- COCCNc1ncnc2nc[nH]c12
  >57 | 2%
- Cc1ccc(CN2CCNC(=O)C2CC(=O)O)cc1 (configuration not stated)
  >57 | -8%
- COc1cccc(Nc2ncc3ncc(=O)n(C[C@H]4CCCO4)c3n2)c1
  >57 | 6%
- CC(=O)Nc1ccc(S(=O)(=O)c2c(N)n(CCN3CCOCC3)c3nc4ccccc4nc23)cc1
  >57 | 24%
- CCOC(=O)c1cc2sccc2n1CC(=O)OC(C)C
  >57 | -14%
- Cc1cc(C)nc(NC(=O)Nc2ccccc2C(F)(F)F)n1
  >57 | ?
- O=C(NCCCn1ccnc1)c1ccncc1
  >57 | 2%
- COCC(=O)N1CCC2(CC1)CN(c1cccc(-c3ccccc3)c1)C2
  >57 | -6%
- CCC1(CC)NC(=O)N(CC(=O)Nc2sc3c(c2C(N)=O)CCC3)C1=O
  >57 | -22%
- O=C(O)c1[nH]nc2c1COc1ccccc1-2
  >57 | 0%

(cont.)
Each structure is followed by: Prx2 Sm inh | LT uptake inh
- CC(=O)C1=C(O)C(=O)N(CO)C1c1ccccc1F (configuration not stated)
  >57 | -3%
- CN(C)S(=O)(=O)N1CCN(CC(=O)Nc2cc(Cl)ccc2Cl)CC1
  >57 | -7%
- C1COC1
  . | -8%
- CCOC(=O)c1cnn(-c2nc(SC)nc3sc4c(c23)CCC4)c1N
  >57 | -6%
- c1nc(NCCN2CCOCC2)c2cc(-c3ccoc3)ccc2n1
  >57 | -7%
- C=C1C(=O)O[C@@H]2[C@H]3O[C@]3(C)CCC=C(C)CC[C@@H]12
  >57&>57 | ?
- O=C(Cc1c(F)c(F)c(F)c(F)c1F)OC12CC3CC(C1)C(=O)C(C3)C2
  >57 | -6%
- CCN(c1ccccc1)S(=O)(=O)c1ccc(C(=O)Nc2nnc(COC)o2)cc1
  >57 | -18%
- O=C1C2CCCN2C(c2cccc(Cl)c2)N1c1ccccn1 (configuration not stated)
  >57 | -11%
- CCSC(=N)N
  >57&>57 | ?
- COCCn1c(=O)c(CCc2ccccc2)nc2cnc(N3CCOCC3)nc21
  >57 | ?
- CCN1CCN(c2ncc(C(=O)Nc3c(F)cc(F)cc3Br)c3ccccc23)CC1
  >57 | 9%
- CCN(CCCNC(=O)COc1cc(=O)n(C)c2ccccc12)c1ccccc1
  >57 | 8%
- COc1cccc(Oc2c(C)oc3c(CN4CCOCC4)c(O)ccc3c2=O)c1
  >57 | ?
- COc1ccc(S(=O)(=O)c2c(N)n(Cc3ccco3)c3nc4ccccc4nc23)cc1
  >57 | ?
- CCC(=O)Nc1nc2ccccc2n1Cc1ccccc1
  >57 | ?
- CCOC(=O)c1c(-c2ccccc2)csc1NC(=O)CSc1nnnn1C
  >57 | ?
- Cc1ccc(Cl)cc1NC(=O)CSc1nnc(C)n1-c1ccccc1
  >57 | -3%
- O=C(CCCc1cccs1)N1CCN(S(=O)(=O)c2ccccc2Br)CC1
  >57 | 2%
- CCCS(=O)(=O)N1CCCC(C(=O)NCCCN2CCCC2=O)C1 (configuration not stated)
  >57 | 7%
- Nc1ccc(NC(=O)c2cccs2)c(Cl)c1
  >57 | -25%
- O=c1[nH]cnc2scc(-c3ccsc3)c12
  >57 | 11%
- COc1ccc(NC(=O)c2cc(-c3ccc(O)cc3)on2)cc1OC
  >57 | -5%
- O=C(O)C1C2CCC(C2)C1C(=O)NCc1ccccn1 (configuration not stated)
  >57 | -18%
- C[C@@H]1C=C[C@](Cc2ccccc2)(C(=O)NCCCNc2ncc(C(F)(F)F)cc2Cl)N1C(=O)c1ccccc1
  . | -33%
- O=C(Nc1nccs1)c1cc(N2CCOCC2)nc2ccccc12
  >57 | 6%
- CSc1ccc(S(=O)(=O)Nc2ccc3c(c2)OCCO3)cc1
  >57 | 11%
- Cc1ccc(NC(=O)CC2Oc3ccccc3NC2=O)c(C)c1 (configuration not stated)
  >57 | 0%
- Cc1nc(NCCCn2ccnc2)c2ccccc2n1
  >57 | -12%
- Cc1ncoc1C(=O)Nc1ccc2c(c1)OCCO2
  >57 | 8%

A draw from above in order of heavy-atom count, largest number first.
Each structure is followed by: Prx2 Sm inh | LT uptake inh
- C[C@@H]1C=C[C@](Cc2ccccc2)(C(=O)NCCCNc2ncc(C(F)(F)F)cc2Cl)N1C(=O)c1ccccc1
  . | -33%
- COc1ccc(NC(=O)c2cc(-c3ccc(O)cc3)on2)cc1OC
  >57 | -5%
- O=C(Nc1nccs1)c1cc(N2CCOCC2)nc2ccccc12
  >57 | 6%
- Cc1ccc(NC(=O)CC2Oc3ccccc3NC2=O)c(C)c1 (configuration not stated)
  >57 | 0%
- Cc1nc(NCCCn2ccnc2)c2ccccc2n1
  >57 | -12%
- Nc1ccc(NC(=O)c2cccs2)c(Cl)c1
  >57 | -25%

Later entries:
Each structure is followed by: Prx2 Sm inh | LT uptake inh
- CCOC(=O)C1CCN(C(=O)Cc2cccs2)CC1
  >57 | 1%
- COc1ccc(S(=O)(=O)N(CC(=O)N2CCN(C)CC2)c2ccc(C)cc2)cc1OC
  >57 | 7%
- CCOc1ccc(-n2c(Cc3cc(=O)[nH]c(=O)[nH]3)nnc2SC(C)C(=O)OC)cc1 (configuration not stated)
  >57 | -8%
- COCCNC(=O)c1ccc(CS(=O)(=O)c2ccccc2)o1
  >57 | -2%
- COc1cccc(-c2cncnc2NCc2cccnc2)c1
  >57 | -2%
- Cc1ccc(S(=O)(=O)C2(C(=O)NC3CCCC3)CC2)cc1
  >57 | 3%
- COc1ccc(C(N)CCc2ccco2)cc1 (configuration not stated)
  >57 | -1%
- O=C(CCn1c(=O)oc2ccccc21)n1c(=O)oc2ccccc21
  >57 | 14%
- Cc1c(C(=O)OCC(C)(C)CN(C)C)oc2ccccc12
  >57 | -19%
- O=C(CN1CCN(c2ccc(F)cc2)CC1)NCC1CCCO1 (configuration not stated)
  >57 | -5%
- Cc1cc(=O)[nH]c(SCCOc2cccc(C(F)(F)F)c2)n1
  >57 | 11%
- CN(C)/C=N/c1c(C#N)cnn1-c1nc2ccccc2s1
  >57 | 2%
- Cc1cccc(NC(=O)Nc2cc(C)on2)c1
  >57 | 1%
- O=C(c1ccc2c(c1)OCO2)N1CCN(c2ccc(F)cc2)CC1
  >57 | 2%
- Cc1ccc(OCCN2CCN(C(=O)CCC(=O)Nc3nnc(C)s3)CC2)cc1
  >57 | ?
- COc1ccc2nc(C)cc(Nc3ccc(N4CCOCC4)cc3)c2c1
  >57 | -19%
- CCC(c1nnnn1Cc1ccco1)N1CCN(c2cc(Cl)ccc2C)CC1 (configuration not stated)
  >57 | ?
- COC(=O)c1ccccc1NC(=O)c1ccccc1N(C)S(C)(=O)=O
  >57 | -10%
- Cc1cccc2sc(NC(=O)C3CCCO3)nc12 (configuration not stated)
  >57 | -5%
- CCOc1ccccc1CNC(=O)CCN1C(=O)COc2ccccc21
  >57 | .
- O=C(Cc1ccc(Cl)cc1)Nc1ccc(-c2nnc(-c3ccco3)o2)cc1
  . | ?
- O=C(OCn1cncn1)c1ccc(Cl)cc1Cl
  >57 | 4%
- CCOc1ccc(OCC)c(N=c2oc3c(C)ncc(CO)c3cc2C(N)=O)c1
  >57 | 12%
- CCCc1cc2c(n1Cc1ccc(C)cc1)C(C)C1CN(C(=O)c3ccccc3)C(C)(C(=O)OC)C21 (configuration not stated)
  >57 | ?
- Cc1ncsc1C(=O)Nc1nc2c(s1)CCCC2
  >57 | 11%
- Cc1cc(C)n(/N=C/c2ccccc2)c(=O)c1C#N
  >57 | -9%
- CC1(C)CC(=O)C(C2(O)C(=O)N(Cc3ccccc3)c3ccccc32)CO1 (configuration not stated)
  >57 | -12%
- Cc1ccc2nc(NC(=O)CCNS(=O)(=O)c3ccc(Br)s3)sc2c1
  . | ?
- N#Cc1cc(C(=O)c2cc(Cl)ccc2O)cn(CC2CCCO2)c1=O (configuration not stated)
  >57 | 13%
- CCCCn1c(SCC(=O)Nc2nnc(CC)s2)nc2ccccc2c1=O
  >57 | 2%
- CC1(C)Cc2ccccc2-c2n[nH]c(=S)n21
  >57 | -18%
- CN(C)S(=O)(=O)c1cccc(CSc2cccc[n+]2[O-])c1
  >57 | -2%
